TRPML1 inh – qHTS for Inhibitors of the Human Mucolipin Transient Receptor Potential 1 (TRPML1); activity change, negative = inhibition, % (no concentration beside the values); AID 624415, 2012; hit rate 0.02% among 390,000; Mucolipin-1 (Homo sapiens), Q9GZU1; TRPML1-inducible cells, Ca2+ dye fluorescence, FDSS; hits give low values; inhibition of EC80 agonist-evoked calcium signal; in the data active means activity change below about -50%; inconclusive means about -30% to -50%; inactive means above about -30%;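 further: stimulus is agonist 54-4 at its EC80 concentration; on the % scale 0 is the no-effect control and ±100 the full control effect; compound concentration not given in the record; the text of the record puts the active cut at -80%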
Target sequence (Q9GZU1 whole entry, looked up): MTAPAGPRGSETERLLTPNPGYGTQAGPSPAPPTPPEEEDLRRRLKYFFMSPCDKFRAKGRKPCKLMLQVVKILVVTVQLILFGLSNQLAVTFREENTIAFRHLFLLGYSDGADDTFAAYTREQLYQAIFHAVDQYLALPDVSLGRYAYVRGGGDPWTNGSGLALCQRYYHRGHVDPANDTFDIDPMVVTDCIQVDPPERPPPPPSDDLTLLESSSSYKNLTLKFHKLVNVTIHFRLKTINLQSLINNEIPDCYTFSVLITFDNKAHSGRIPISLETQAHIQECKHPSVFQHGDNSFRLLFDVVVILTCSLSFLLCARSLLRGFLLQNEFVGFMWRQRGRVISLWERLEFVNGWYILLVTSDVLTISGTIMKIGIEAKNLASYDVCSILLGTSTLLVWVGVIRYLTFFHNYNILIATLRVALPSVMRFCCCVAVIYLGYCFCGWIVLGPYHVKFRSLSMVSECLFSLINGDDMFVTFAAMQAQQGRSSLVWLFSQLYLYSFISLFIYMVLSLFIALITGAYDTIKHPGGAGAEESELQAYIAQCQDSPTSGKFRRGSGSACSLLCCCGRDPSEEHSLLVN
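Calcium fluorescence in TRPML1-DL cells induced overnight with Tet: a 110 s read after compound pin addition, then a 110 s antagonist read after challenge with 54-4 at 4 uM final (EC80).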
TRPML1 agonist – qHTS for Agonists of the Human Mucolipin Transient Receptor Potential 1 (TRPML1); hit rate 0.12% among 410,000; Mucolipin-1 (Homo sapiens), Q9GZU1; TRPML1-expressing cells, Ca2+ dye fluorescence, FDSS; host cell line not named in the record; reference of the full effect not given here; AID 624414, 2012; activation, % (test concentration not listed); in the data active = activation above about 50%; inconclusive = about 30% to 50%; inactive = below about 30%; further: 0% is about no effect; the text of the record puts the active cut at 80%
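Tet-induced TRPML1-DL cells, 1,500 per well, cultured overnight, were loaded with a no-wash Ca2+ dye for 45–90 min. Calcium fluorescence was recorded on the FDSS for 110 s after compound addition, before the EC80 agonist (4 uM 54-4) was added.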
Six1-Eya2 blk – qHTS Assay for Inhibitors of the Six1/Eya2 Interaction; hit rate 0.56% among 360,000; Homeobox protein SIX1 (Homo sapiens) + Protein phosphatase EYA2 (Homo sapiens), …; AID 651725, 2012; activity change, % (no concentration beside the values); AlphaScreen GST-Six1/His-Eya2 binding, biochemical; hits give low values; control for the full effect not named in the record; in the data active = activity change below about -65%; inconclusive = about -30% to -65%; inactive = above about -30%; further: on the % scale 0 is the no-effect control and ±100 the full control effect; compound concentration not given in the record
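AlphaScreen with GST-Six1 and His-Eya2 (5X mix: 250 nM and 500 nM), glutathione donor and nickel acceptor beads; buffer 50 mM Tris pH 8.0, 300 mM NaCl, 1 mM TCEP; 1 h at 37 C in the dark.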
CtBP-E1A blk – qHTS Assay for Inhibitors of the CtBP/E1A Interaction; CtBP / adenovirus E1A interaction (AlphaScreen); AlphaScreen GST-E1A/His-CtBP binding, 1536-well; hits give low values; control for the full effect not named in the record; activity change, % (concentration not given with the values); hit rate 0.49% among 340,000; in the data active means activity change below about -65%; inconclusive means about -30% to -65%; inactive means above about -30%; further: on the % scale 0 is the no-effect control and ±100 the full control effect
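AlphaScreen with 125 nM GST-E1A and 125 nM His-CtBP (5X stocks) in Tris pH 8.0, 300 mM NaCl, BSA, Tween 20, TCEP. Compounds preincubated 2 h at 37 deg C, then glutathione donor/nickel acceptor beads added for 1 h at 37 deg C in dark.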
PINK1 expr mod – A Quantitative High throughput Screen to Identify Chemical Modulators of PINK1 Expression | hit rate 0.2% among 410,000 | PINK1 immunofluorescence, high-content cytometry, 24 h | Potency, µM (series often up to 76.6 µM), inactives show at the highest dose activation (PINK1 increase), usual class: activators | AID 624263, 2012; active = well fitted activation curve with a large enough effect; inconclusive = small, poorly fitted or top-dose-only effect; inactive = flat fitted curve, though single readings scatter; cell line not stated here;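 further: potency means the concentration at half of the fitted maximal effect; % of control where 0% means no effect; nearly all actives have a fitted effect of over 65% in size; a mitochondrial uncoupler was the plate control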
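Stable cell line treated 24 h with compounds at 5 concentrations (CCCP controls), then fixed and immunostained for PINK1 plus nuclear and cell stains; PINK1 immunofluorescence quantified by laser-scanning microplate cytometry.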
D2 agonist – Beta-Arrestin HTS for Positive Allosteric Modulators of the Human D2 Dopamine Receptor: Agonists; D(2) dopamine receptor (Homo sapiens), P14416; DiscoveRx PathHunter D2 beta-arrestin, luminescence, 90 min; 100% = 57 uM dopamine signal; activation, % (test concentration not listed); hit rate 0.084% among 360,000; in the data active = activation above about 40%; inconclusive = about 15% to 40%; inactive = below about 15%; further: compound concentration not given in the record; the text of the record calls up to 30% inactive
Target sequence (P14416 whole entry, looked up): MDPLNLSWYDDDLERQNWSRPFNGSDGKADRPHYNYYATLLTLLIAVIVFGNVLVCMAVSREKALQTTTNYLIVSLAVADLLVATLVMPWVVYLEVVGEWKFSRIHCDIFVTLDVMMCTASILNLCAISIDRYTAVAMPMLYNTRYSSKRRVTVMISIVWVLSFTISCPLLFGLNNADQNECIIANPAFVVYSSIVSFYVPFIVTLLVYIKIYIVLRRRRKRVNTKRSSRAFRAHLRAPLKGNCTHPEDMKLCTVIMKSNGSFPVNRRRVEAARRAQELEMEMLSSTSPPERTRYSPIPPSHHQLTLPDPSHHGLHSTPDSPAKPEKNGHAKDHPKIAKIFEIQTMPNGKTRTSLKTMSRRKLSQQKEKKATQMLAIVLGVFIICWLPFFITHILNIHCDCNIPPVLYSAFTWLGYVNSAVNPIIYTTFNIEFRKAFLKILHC
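Agonist mode: compounds alone added to overnight-plated D2 PathHunter cells for 90 min at 37 C, with 57 uM final dopamine (EC100) defining full response. Beta-arrestin recruitment detected by chemiluminescent reagent, read after 1 h at ambient temperature.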
* hit, by the source's call; ? = inconclusive; . = not tested or not shown; [ ] = dose if it differs, or a comment.

SMILES | TRPML1 inh | TRPML1 agonist | Six1-Eya2 blk | CtBP-E1A blk | PINK1 expr mod | D2 agonist
Cc1ccc2nc(NC(=O)c3cccs3)sc2c1 | -12.5 | -0.3 | 6.2 | -1.4 | 3.4% | -0.1
C[C@@H]1CN([C@@H](C)CO)C(=O)CCCn2nncc2CO[C@H]1CN(C)C(=O)c1ccc2ccn(C)c2c1 | . | . | 3.1 | 3.7 | 1.5% | 1.9
CCOC(=O)c1oc2ccc(S(=O)(=O)N3CCC(C)CC3)cc2c1C | 39.0 | 1.6 | 4.1 | 6.0 | -0.1%[38.3 µM] | -2.4
COc1ccc(C[C@@H]2CN3C(=NC[C@@H]3C)N2CCNC(=O)c2ccc(C)c(Br)c2)cc1 | 2.7 | -0.3 | 2.6 | . | -0.5% | 0.5
CCOc1ccc(CN(C)C(=O)Cc2c[nH]c3ccccc23)cc1 | 16.2 | 2.4 | -6.5 | -6.0 | -0.7% | 6.1
CCOC(=O)C1CCN(Cc2cc(Cl)c3ccccc3c2O)CC1 | -19.8 | 3.5 | -8.0 | 0.1 | -0.1% | 3.0
CCOC(=O)C(C(=O)OCC)N(C#N)c1nc(N(C)C)nc(N(C)C)n1 | -11.2 | -0.5 | 7.9 | -0.4 | 4.7% | -6.3
Cc1cc(N2CCC(C(N)=O)CC2)nc(-c2ccccc2)n1 | 2.9 | 1.9 | 0.9 | 3.0 | -0.5% | -2.0
COC(=O)c1sccc1NC(=O)c1ccccc1[N+](=O)[O-] | 36.9 | 3.9 | -5.6 | -6.6 | -0.3% | -0.4
O=C(NC1(C(F)(F)F)C(=O)Nc2c1c(=O)[nH]c(=O)n2-c1ccccc1)c1ccccc1 (configuration not stated) | -16.0 | 0.7 | . | . | 0.1% | .
CC(C)C(=O)Nc1cccc(NC(=O)c2cccc([N+](=O)[O-])c2)c1 | 11.3 | -1.0 | -1.6 | 4.5 | 0.5% | -2.6
CN=c1scc(-c2ccccc2F)n1/N=C/c1ccc(O)c(O)c1O | 9.5 | 1.0 | -74.5* | ? | 2.8% | 180.3*
O=C(CCCc1c[nH]c2ccccc12)NCc1ccc2c(c1)OCO2 | 20.9 | 0.3 | -10.7 | -1.6 | -0.1% | -0.9
CCCCN(C(=O)c1ccc([N+](=O)[O-])o1)c1c(N)n(CCCC)c(=O)[nH]c1=O | 2.3 | 0.6 | -2.1 | 13.8 | 6.7% | 8.1
c1cc(-c2nnn(CCOCCn3nnc(-c4ccncc4)n3)n2)ccn1 | . | . | -1.2 | 1.8 | 1.5% | -4.2
Cc1ccc(C(=O)OCC(=O)Nc2sc3c(c2C#N)CCC3)cc1 | -15.6 | 1.2 | 9.2 | 3.5 | -2.5% | -0.9
C/C(=N\Nc1nc2ccccc2[nH]1)c1ccc(N2CCOCC2)cc1 | 0.8 | 0.5 | ? | ? | 0.3% | -1.3
CCOC(=O)N1CCN(S(=O)(=O)c2ccc(F)c(C(=O)Nc3ccc(C)c(Cl)c3)c2)CC1 | 0.2 | 0.1 | -1.5 | 5.6 | 1.6% | 1.5
COc1cccc(CNC(=O)c2ccc3nc(-c4ccc(F)cc4)c(-c4ccc(F)cc4)nc3c2)c1 | -21.9 | ? | . | . | 2.0% | .
CCOC(=O)c1ccc2nc(CCC(=O)N[C@H](C(=O)OC)C(C)C)c(=O)n(CC)c2c1 | -3.3 | -0.3 | -0.3 | 3.2 | 1.6% | 8.8
COc1ccc(C(=O)C(C)[n+]2ccc(-c3nnc4n3CCCCC4)cc2)cc1 (configuration not stated) | -2.6 | 0.0 | 8.6 | 4.0 | -1.1% | -2.8
Cn1ncc2c1NC(c1ccc(F)cc1)SCC2=O (configuration not stated) | 5.8 | -0.6 | -4.0 | -1.5 | 0.8% | -4.3
COC(=O)N/N=C/c1ccc(-c2ccc(C)c(Cl)c2)o1 | 30.6 | 0.9 | -4.3 | 14.0 | 4.2% | -2.2
C=CCNC(=O)/C(=C\c1ccc(Br)cc1)NC(=O)c1ccccc1OC | 11.3 | -0.2 | -0.5 | 6.6 | 0.3% | -1.6
O=C1c2ccccc2C(=O)c2c(/C=C/N3CCCCC3)ccnc21 | 7.0 | 0.4 | -23.4 | -23.8 | 7.8% | ?
Cc1onc(-c2ccccc2)c1C(=O)N1CCC(C)(C(=O)O)C1 (configuration not stated) | 8.3 | 0.1 | 5.3 | 6.3 | 0.2% | -6.6
CCOCCn1c(N2CCN(c3ccc(OC)cc3)CC2)nc2c1c(=O)n(C)c(=O)n2C | 16.2 | 0.9 | 4.8 | -4.0 | 1.4% | -1.6
COc1ccc(Cl)cc1C(=O)NNC(=S)NC(=O)c1ccc(F)c(F)c1 | -10.5 | ? | -2.0 | -10.2 | 5.7% | -3.8
C[n+]1ccccc1COc1ccc(C(C)(C)C)cc1 | 3.4 | -0.3 | 10.6 | 3.8 | 19.4% | -2.1
COc1cc(-c2cc(C(=O)Nc3ccc(N4CCOCC4)cc3)c3ccccc3n2)cc(OC)c1OC | -3.7 | 0.0 | -27.5 | . | 2.1% | 2.7
COCc1cc(C)[nH]c(=O)c1C(=O)NC12CC3CC(CC(C3)C1)C2 | 12.8 | -0.2 | -2.7 | 2.0 | -0.4% | 1.0
NC(=O)c1ccc(N2CCCC2)nc1 | 38.5 | -0.5 | 6.5 | 3.5 | 3.9% | 6.6
O=c1c2oc3ccccc3c2n(Cc2cccc(C(F)(F)F)c2)c(=O)n1Cc1ccc2c(c1)OCO2 | 28.9 | 3.9 | . | . | 0.3% | .
O=C(NCC1(c2ccccc2)CCCC1)c1ccc(Br)cc1 | -23.7 | 2.4 | 21.2 | 0.9 | -0.3% | -0.4
CCCCOC(=O)c1nc[nH]c1C(=O)OCCCC | 4.1 | -0.8 | 3.7 | 0.8 | 2.1% | 0.9
CCc1ccc(OCC(=O)Nc2cc(-c3ccc(C)cc3)no2)cc1 | 6.2 | -0.5 | . | . | 5.6% | .
COCCCNC(=O)c1oc2c(c1C)-c1nn(Cc3ccc(Cl)cc3)cc1CC2 | 4.9 | 2.7 | . | . | 5.1% | .
CC(C)(C)c1cc(C(=O)N/N=C/c2ccncc2)n[nH]1 | 1.1 | -0.4 | 0.4 | 3.1 | 0.1% | 2.5
CCCCN(C(=O)c1ccc(N2CCCC2=O)cc1)c1c(N)n(Cc2ccccc2)c(=O)[nH]c1=O | -0.2 | -0.9 | -0.9 | -1.5 | 2.7% | -2.9
Cc1nnc(N(C)C(=O)c2ccc3c(c2)OCO3)s1 | -0.8 | -0.2 | 2.8 | -1.3 | 0.9% | -2.5
Cc1oc(-c2cccc(Cl)c2)nc1Cn1c(SCc2ccc(F)cc2)nc2cccnc21 | -2.3 | -0.1 | . | . | 2.0% | .
COc1ccc(N2CCN(C(=O)CSc3nnnn3-c3ccc4c(c3)OCCO4)CC2)cc1 | -4.9 | 1.6 | -27.7 | 4.3 | . | 0.8
CCN1CCN(Cc2nc3c(c(=O)[nH]c(=O)n3C)n2Cc2ccccc2Cl)CC1 | -4.7 | -0.1 | -4.4 | -3.4 | 4.0% | -3.5
COc1cc(/C=C(/C#N)c2nc3ccccc3c(=O)[nH]2)ccc1O | -16.3 | 4.3 | 9.7 | 21.5 | 2.5% | -8.1
O=C(Nc1ccccc1)Nc1ccc2c(c1)CCC2 | -7.5 | -0.2 | 10.5 | -3.2 | 5.4% | -3.4
O=C(COC(=O)Cc1ccc([N+](=O)[O-])cc1)NCc1ccc2c(c1)OCO2 | -5.0 | -0.6 | -5.5 | 0.3 | -4.0% | 5.0
Cc1ccccc1N(C)S(=O)(=O)c1ccc2[nH]cc(C(=O)NCC3CCCO3)c(=O)c2c1 (configuration not stated) | -8.3 | 0.7 | -3.7 | -6.8 | 11.2%[38.3 µM] | -1.0
Cc1ccc(C(=O)NCC(=O)N2CCCCCC2)cc1 | -10.1 | 0.1 | 35.9 | 0.3 | 0.1% | 0.4
O=C(CC1CCC1)Nc1cccc2c([N+](=O)[O-])cccc12 | 14.7 | 0.5 | -2.4 | -1.0 | 2.7% | -2.5
CC12COC3(C(N)=O)CC1CCC32C (configuration not stated) | -8.8 | 1.0 | 12.2 | -1.3 | -1.9% | -2.0
CCN(CC)c1ccc(Nc2cc3n(c(=O)n2)CCc2cc(OC)c(OC)cc2-3)cc1 | 4.3 | 5.3 | ? | -83.5* | 0.6% | 6.0
CCOC(=O)c1ccc(N2Cc3ccccc3C2=NC(=O)c2cccs2)cc1 | 6.8 | 1.3 | 0.7 | 9.9 | 1.7% | 0.7
CCCCn1c(OC(=S)N(CC)CC)cc(C)nc1=S | . | -1.1 | 5.9 | 2.3 | 6.1% | 5.3
CC(Sc1nc(N2CCOCC2)nc(N2CCOCC2)n1)C(=O)Nc1ccccc1 (configuration not stated) | 1.3 | 0.5 | 6.9 | 2.8 | 1.9% | ?
Cc1ccc(C(=O)CCC(=O)N2CCC(C(N)=O)CC2)s1 | 25.4 | 1.2 | 2.1 | 2.8 | 0.3% | 2.0
CCOC(=O)[C@@H]1[C@H]2COc3ccccc3[C@@H]2N2C(=O)N(c3ccccc3)C(=O)[C@@]12C | -3.1 | -0.7 | -0.2 | 2.4 | 1.5% | -1.5
CCOc1ncccc1C(=O)OCC(=O)c1ccccc1Br | . | . | 4.1 | 6.1 | -0.4% | -4.6
CN(C(=O)c1ccc2c(=O)n3c(nc2c1)CCCCC3)c1ccccc1F | -10.3 | 0.3 | 2.6 | -12.0 | 0.3% | 3.6
Cc1ccc(C)c(OCCC(=O)NCCc2ccc(S(N)(=O)=O)cc2)c1 | 27.0 | -0.2 | -3.9 | 6.1 | -0.3% | -2.0
C[C@H](O)[C@@H]1CN2CCc3c([nH]c4ccccc34)[C@@H]2C[C@@H]1N(C)C(=O)Nc1cc(Cl)cc(Cl)c1 | 2.0 | -0.1 | -9.3 | -4.2 | 4.2% | -7.3

Ordered by value in D2 agonist (largest number first): three from the list above.
Compound	D2 agonist
CCN(CC)c1ccc(Nc2cc3n(c(=O)n2)CCc2cc(OC)c(OC)cc2-3)cc1	6.0
O=C(COC(=O)Cc1ccc([N+](=O)[O-])cc1)NCc1ccc2c(c1)OCO2	5.0
C[C@H](O)[C@@H]1CN2CCc3c([nH]c4ccccc34)[C@@H]2C[C@@H]1N(C)C(=O)Nc1cc(Cl)cc(Cl)c1	-7.3
